# Source: PubChem (several laboratories)
# Arbovirus anti = arbovirus infection inhibition; arbovirus infection cell-based antiviral screen; inhibition, % at 10 µM; hit rate 0.37% among 200,000;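 active = inhibition from about 30%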;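 note: bluetongue infection of BSR cells; cell survival read as ATP light after 72 h; 0% = infected wells without compound and 100% = uninfected wells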
# Mtb bLac sens = beta-lactam sensitization of Mtb H37Rv; M. tuberculosis H37Rv growth with meropenem, percent inhibition; hits of this screen are not shown here; inhibition, % at 25 µM; hit rate 0.27% among 330,000; AID 434955;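 active = about 74% or more and at least 40 points above the plate without the antibiotic, then above 30% in a dose series; inconclusive = first-round hits that could not be retested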;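 note: growth measured after seven days incubation then overnight dye step; 0% = bacteria only wells and 100% = bacteria with antibiotic; twin plates without the antibiotic show which effects depend on it; some results filed as inactive read as strong as hits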
# YopH PTP inh = inhibitors of Yersinia enterocolitica YopH tyrosine phosphatase; fluorescence Ex485/Em525; inhibition, %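 (about 10 µM by stock and volumes)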; hit rate 0.16% among 140,000; AID 898;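 active = inhibition of 50% or more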;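 note: controls were vehicle for no effect and minimum signal wells for full effect; inactives centre near -20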
# RecA splice inh = blocks M. tuberculosis RecA intein splicing. hit rate 0.75% among 290,000. inhibition, %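 (about 9 µM by stock and volumes)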. P9WHJ3. cell-free RecA intein splicing, fluorescence. AID 2221; in the data active = inhibition above about 30%; inconclusive = no clear call, values can overlap the other calls;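 note: 0% = vehicle wells and 100% = reference inhibitor control wells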
# Target sequence (P9WHJ3 whole entry, looked up, canonical isoform): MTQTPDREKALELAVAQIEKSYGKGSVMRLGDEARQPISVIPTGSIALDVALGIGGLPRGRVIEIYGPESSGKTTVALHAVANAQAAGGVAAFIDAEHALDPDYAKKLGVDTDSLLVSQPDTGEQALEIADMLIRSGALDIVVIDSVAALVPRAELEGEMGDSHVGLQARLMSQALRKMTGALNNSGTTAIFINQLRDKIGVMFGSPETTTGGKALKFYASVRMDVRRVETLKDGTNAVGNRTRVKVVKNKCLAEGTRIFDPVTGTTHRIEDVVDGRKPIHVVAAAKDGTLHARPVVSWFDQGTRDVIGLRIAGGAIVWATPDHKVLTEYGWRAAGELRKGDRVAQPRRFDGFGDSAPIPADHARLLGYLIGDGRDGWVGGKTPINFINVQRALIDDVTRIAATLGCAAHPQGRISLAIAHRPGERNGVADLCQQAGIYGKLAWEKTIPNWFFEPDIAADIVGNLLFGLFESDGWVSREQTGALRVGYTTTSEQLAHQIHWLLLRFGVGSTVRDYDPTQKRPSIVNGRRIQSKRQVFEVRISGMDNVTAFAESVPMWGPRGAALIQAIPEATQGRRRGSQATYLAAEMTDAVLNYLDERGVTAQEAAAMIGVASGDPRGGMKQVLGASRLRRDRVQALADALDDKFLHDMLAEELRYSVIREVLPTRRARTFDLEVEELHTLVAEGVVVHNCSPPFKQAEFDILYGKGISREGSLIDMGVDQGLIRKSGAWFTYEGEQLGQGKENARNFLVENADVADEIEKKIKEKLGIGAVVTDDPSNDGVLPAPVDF
# Mtb H37Rv = M. tuberculosis H37Rv growth inhibitors, H37Rv strain (AID 1626) | M. tuberculosis H37Rv growth inhibition; higher % means a stronger effect | inhibition, % at 10 µM; hits with a dose series show IC50 in µM | hit rate 0.95% among 220,000;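 active = confirmed in a dose series; inconclusive = inhibition above 80% but not taken into the dose series; inactive = below 80% or under 30% at every dose of the series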;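 note: bacteria incubated seven days before Alamar blue readout; 0% = bacteria only wells and 100% = bacteria with antibiotic wells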
# Arbovirus anti repeat = also measured in Arbovirus anti; calls as there; inhibition, %; measured here: 10K subset replicate screen; many hits read low in the repeat;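 first of two repeat runs on a subset; 0% = infected and 100% = uninfected wells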
# * hit, by the source's call; ? = inconclusive; / = not tested or not shown. These rows are one share of the data. The share of hits here may be higher or lower than overall.
SMILES,Arbovirus anti,Mtb bLac sens,YopH PTP inh,RecA splice inh,Mtb H37Rv,others
O=C(NCc1cc([N+](=O)[O-])ccc1O)c1cccnc1Sc1ccccc1,/,5,/,1.2,/,
CCOc1ccc(NC(=O)c2ccc(NC(=O)COC(=O)Cc3ccccc3)cc2)cc1,-2,9,12,/,16%,
CC1CCC2(CC1)NC(=O)N(CC(=O)Nc1ccc3[nH]c(=O)[nH]c3c1)C2=O (centres undefined),/,-4,/,2.9,/,
Cc1ccc2oc(=O)c3cnn(CC(=O)N(CCC(C)C)Cc4ccco4)c3c2c1,3,-6,-32,0.3,-1%,Arbovirus anti repeat=-3
CCCc1nnc(SCC(=O)N2CCCCC2C)n1CCOC (centres undefined),-5,-8,/,-1.1,-6%,
CC(=O)Nc1c(N)c2ccccc2oc1=O,-1,0,/,-1.3,-4%,
COc1cc(/C=C2\C(=N)N3N=C(S(C)(=O)=O)SC3=NC2=O)ccc1OC(=O)c1cccs1,/,8,/,15,/,
COCCNC(=O)c1c(N)n(CCC(C)C)c2nc3ccccc3nc12,-32,98,-7,-316,44%,
O=C1CCc2cc(NS(=O)(=O)c3ccccc3)cc3c2N1CC3,/,-7,/,-2.6,/,
Cc1ccc(NC(=O)c2ccc3c(c2)S(=O)(=O)c2ccccc2C3=O)cc1S(=O)(=O)N1CCOCC1,/,-1,/,0.8,-1%,
COc1cccc2cc(-c3nc4ccccc4[nH]3)c(=O)oc12,/,-2,/,-45,/,
Cn1c(Nc2ccccc2)nc2ccccc21,/,2,/,1.9,/,
COc1ccc(NC(C)=O)cc1NC(C)C(=O)Nc1ccc(F)c(F)c1F (centres undefined),2,-4,-2,-0.9,-9%,
CCCc1cc(Nc2ccccc2C)n2ncnc2n1,/,3,/,-1.2,/,
c1coc(CNCC2OCCc3ccccc32)c1 (centres undefined),10,1,-49,0.4,3%,
Cc1ccc(C(=O)N/C(=C\c2ccc(-c3ccccc3[N+](=O)[O-])o2)C(=O)NCCN(C)C)cc1,/,5,/,6.6,/,
CC(C)c1nc(SCC(=O)N2CCN(c3ccccc3)CC2)c2c(=O)n(C)c(=O)n(C)c2n1,-10,/,-13,-2.0,8%,
CC(C)C(C(=O)NCC1CCCO1)N(C(=O)CNS(=O)(=O)c1ccccc1)c1ccc(F)cc1 (centres undefined),/,-1,/,-1.4,/,
COc1ccc(CNC(=O)CCn2ccc3cc(S(=O)(=O)N4CCCC4)ccc32)cc1,/,-6,/,0.9,/,
Cc1nc2nc(Cc3ccccc3)[nH]n2c(=O)c1Cl,4,12,-45,8.2,-3%,

# Next part (5 carried over from the part before).
SMILES,Arbovirus anti,Mtb bLac sens,YopH PTP inh,RecA splice inh,Mtb H37Rv,others
Cc1ccc(C(=O)N/C(=C\c2ccc(-c3ccccc3[N+](=O)[O-])o2)C(=O)NCCN(C)C)cc1,/,5,/,6.6,/,
CC(C)c1nc(SCC(=O)N2CCN(c3ccccc3)CC2)c2c(=O)n(C)c(=O)n(C)c2n1,-10,/,-13,-2.0,8%,
CC(C)C(C(=O)NCC1CCCO1)N(C(=O)CNS(=O)(=O)c1ccccc1)c1ccc(F)cc1 (centres undefined),/,-1,/,-1.4,/,
COc1ccc(CNC(=O)CCn2ccc3cc(S(=O)(=O)N4CCCC4)ccc32)cc1,/,-6,/,0.9,/,
Cc1nc2nc(Cc3ccccc3)[nH]n2c(=O)c1Cl,4,12,-45,8.2,-3%,
Cc1cc(C)nc(NC(=O)c2cc3ccccc3o2)n1,9,3,-15,-0.2,-8%,
O=C(COc1ccc2ccccc2c1)N/N=C/c1ccccn1,0,-5,/,-11,-2%,
COc1cc(NC(=O)CSc2nc3[nH]ncc3c(=O)n2-c2ccccc2C)cc(OC)c1OC,-5,-4,-22,1.1,-1%,
Cc1cc(C)c(C)c(S(=O)(=O)NCCCN2CCCC2=O)c1C,/,-6,/,0.3,/,
CCn1c(=N)n(CC(=O)C23CC4CC(CC(C4)C2)C3)c2ccccc21,-33,49,-26,12,-13%,
Cc1ccc([N+](=O)[O-])cc1N/C=C1\CCCCC1=O,-2,-6,/,1.1,5%,
Nc1ccc(C(CC(=O)O)n2cccc2)cc1 (centres undefined),1,-9,/,-6.2,1%,
COc1cccc(NC(=O)Cn2nnc(C(=O)NCc3cccs3)c2N)c1,/,-1,/,-0.2,/,
CCCOc1ccc(/C(O)=C2/C(=O)C(=O)N(CCCN3CCOCC3)C2c2ccncc2)cc1 (centres undefined),4,/,/,/,-3%,
Clc1ccc(Nc2nc(-c3ccncc3)cs2)cc1,/,81,-25,0.1,15%,
COc1ccc(CC(=O)N(Cc2ccccc2)c2cccc(C)c2)cc1OC,/,4,/,7.6,/,
COc1ccccc1C(=O)NC(=O)COC(=O)C1CC2CCCC(C1)C2=O (centres undefined),/,1,/,-0.9,/,
CCCSc1nc2c(cnn2-c2ccc(Cl)cc2)c(=O)[nH]1,6,-2,-26,0.8,6%,
CCC(=O)N(Cc1cc(=O)[nH]c2ccccc12)c1cccc(C)c1,1,-7,-41,/,-2%,
O=C(Nc1ccccc1)Nc1ccc2ccccc2n1,/,2,/,-8.7,/,
N#CC1=C(N)Oc2n[nH]c(-c3ccccc3)c2C1c1ccsc1 (centres undefined),-13,-9,-26,86*,1%,
CN(C)c1ccc(NC(=O)Nc2csc3ccccc23)cc1,/,-2,/,-2.0,11%,
CCc1ccc(CNC(=O)C2CCCN(S(=O)(=O)N(CC)c3ccccc3)C2)cc1 (centres undefined),/,5,/,-0.8,/,
CCOC(=O)CSc1nc2sc3c(c2c(=O)n1CC)CC(C)(C)OC3,5,83,-30,0.6,46%,
COC(=O)CCCC1=CC2=C(c3ccccc3)C(=O)C(C)(OC(=O)C3CCCC3)C(=O)C2=CN1C1CCCC1 (centres undefined),/,-1,/,16,-3%,

# Molecules from the list above containing a halogen, in the order listed:
SMILES,Arbovirus anti,Mtb bLac sens,YopH PTP inh,RecA splice inh,Mtb H37Rv,others
COc1ccc(NC(C)=O)cc1NC(C)C(=O)Nc1ccc(F)c(F)c1F (centres undefined),2,-4,-2,-0.9,-9%,
CC(C)C(C(=O)NCC1CCCO1)N(C(=O)CNS(=O)(=O)c1ccccc1)c1ccc(F)cc1 (centres undefined),/,-1,/,-1.4,/,
Cc1nc2nc(Cc3ccccc3)[nH]n2c(=O)c1Cl,4,12,-45,8.2,-3%,
Clc1ccc(Nc2nc(-c3ccncc3)cs2)cc1,/,81,-25,0.1,15%,
CCCSc1nc2c(cnn2-c2ccc(Cl)cc2)c(=O)[nH]1,6,-2,-26,0.8,6%,

# Next part
SMILES,Arbovirus anti,Mtb bLac sens,YopH PTP inh,RecA splice inh,Mtb H37Rv,others
CC(=O)c1c(C)nc(-c2ccc(Cl)cc2Cl)n1O,5,9,-10,-7.0,3%,
FC(F)(F)c1cccc(CN2CCN(c3ncccn3)CC2)c1,/,-3,/,-0.6,/,
COc1ccc(COC(=O)C2=C(C)NC(=O)NC2c2ccc(O)c(OC)c2)cc1 (centres undefined),10,4,-46,/,-3%,Arbovirus anti repeat=1
CCCN1CCC(=O)N([C@H](CO)c2ccccc2)CC1,/,-5,/,0.3,/,
O=C(CCN1C(=O)/C(=C\c2ccc(F)cc2)SC1=S)Nc1ccc(O)cc1,/,-2,/,18,/,
Cc1cc(C)cc(Oc2ccc(NC(=O)C3CC=CCC3C(=O)O)cc2)c1 (centres undefined),2,-3,/,2.3,1%,
CCOC(=O)CSc1nnc(CNC(=O)Cc2ccccc2)n1C,5,-10,-35,0.4,-10%,
COc1ccc(C(O)c2nc3ccccc3n2C)cc1OC (centres undefined),11,1,-33,-0.9,-1%,
CCCCOC1(c2ccccc2)OC(=O)c2ccccc21 (centres undefined),-2,6,-35,4.4,-14%,
CCn1c(/C=C/c2cccc([N+](=O)[O-])c2)nc2ccccc2c1=O,0,7,-6,/,-8%,
CN1CCN(c2ccc(S(=O)(=O)N3CCCCC3)cc2NC(=O)Cc2c(F)cccc2Cl)CC1,/,3,/,1.6,/,
Cc1c(C(=O)NCc2cccs2)oc2ccc(Br)cc12,-1,-2,-17,2.7,-13%,
Cc1ccc(Cl)cc1N1CCN(CC(=O)Nc2ccc3[nH]c(=O)[nH]c3c2)CC1,25,-5,-43,-1.7,-2%,
COC(=O)Cn1c(=O)c2c(nc3n2CCCN3CCc2ccccc2)n(C)c1=O,/,8,/,-0.4,/,
C=CCn1c(SCC(=O)OCc2ccccc2)nc2c1c(=O)n(C)c(=O)n2C,1,-4,-10,-0.4,-8%,
c1cc2c3c(cccc3c1)C(N1CCCCCC1)=N2,5,?,-2,-178,/,
O=C(Nc1ccccc1)Nc1ncc([N+](=O)[O-])s1,4,/,/,/,63%,
C/C(=C1/SC(=S)N(CCC(=O)O)C1=O)c1ccc(O)cc1,-2,-8,7,3.7,-8%,Arbovirus anti repeat=3
CCOc1ccc(S(=O)(=O)N(C)c2ccc(OCC(=O)Nc3nccs3)cc2)cc1,1,-2,/,5.9,2%,
O=C(c1ccc(Cl)cc1)N1CCC(O)(CSc2ccccc2)CC1,5,-6,-29,2.2,-7%,
O=C(C(Cc1ccccc1)NS(=O)(=O)c1ccc(F)cc1)N1CCC2(CC1)OCCO2 (centres undefined),1,16,2,-0.6,-12%,Arbovirus anti repeat=1
COc1ccccc1C(=O)O/N=C(\N)c1ccc(Cl)cc1,6,-5,-39,3.9,0%,
COc1ccc(C(=O)C2CCCN(C(=O)c3ccccc3C(C)=O)C2)cc1F (centres undefined),5,-2,/,-2.3,-1%,
CCOc1cc(/C=N/NC(=O)COc2nc(C)cc(COC)c2C#N)ccc1O,-7,-1,-16,-1.7,-5%,
O=C(NC1CC1)C1=C[C@H](c2csc3ccccc23)C[C@H](OCc2ccc(CO)cc2)O1,/,15,/,-0.9,6%,
O=C(COC(=O)CCC(=O)c1cccs1)NC1CC1,0,-10,/,-4.5,-3%,
CCC(=O)Nc1nnc(S(=O)(=O)N2c3ccccc3CC2C)s1 (centres undefined),/,0,/,-2.5,/,
CC(=O)c1cc2c(cc1NC(=O)c1cccc(S(=O)(=O)N3CCN(C)CC3)c1)OCO2,2,3,/,0.7,3%,
CC1CCN(C(=O)c2ccc3c(Cl)c4c(nc3c2)CCCC4)CC1,-21,-3,/,8.3,0%,
CCCCN1/C(=C/c2ccc3ccccc3[n+]2CC)Sc2ccccc21,-37,/,/,/,-5%,
Cc1cccc(-c2noc(CNS(=O)(=O)c3ccccc3)n2)c1,/,5,/,1.7,/,
CCC(Oc1ccccc1)C(=O)Nc1cc(Cl)ccc1-n1cncn1 (centres undefined),/,-9,/,2.5,/,
CC(=O)N1N=C(c2ccncc2)OC12CCCC2,4,4,5,-1.0,3%,
CCCCn1c(N)c(N(CCOC)C(=O)c2ccc(-c3cccc(C(F)(F)F)c3)o2)c(=O)[nH]c1=O,/,-9,/,2.0,/,
Cc1cc(C)nc(Nc2ncn[nH]2)n1,-3,1,/,0.3,-3%,
COC(=O)CSc1nnc(-c2ccc3c(c2)OCO3)n1C,3,0,-120,-5.4,-8%,
Cc1ccc2oc(-c3cccc(NC(=O)c4ccccn4)c3)nc2c1,/,2,/,0.3,/,
COc1ccc(C2=CC(=O)N(Nc3ccccc3)C2=O)cc1,-24,8,/,2.0,4%,
CCc1ccc(NC(=O)[C@@H](NC(=O)[C@@H]2Cc3ccccc3CN2)C(C)CC)cc1 (some centres undefined),/,3,/,3.7,/,
COc1cccc(/C=C(/C#N)c2nc3ccccc3[nH]2)c1OC(C)C(=O)O (centres undefined),/,5,/,-1.0,/,
COc1ccc(C(=O)n2nc(-c3ccccc3)nc2N)cc1OC,2,-8,-12,-1.9,-1%,

# Six entries out of the list, arranged by formula weight, ascending.
SMILES,Arbovirus anti,Mtb bLac sens,YopH PTP inh,RecA splice inh,Mtb H37Rv,others
Cc1cc(C)nc(Nc2ncn[nH]2)n1,-3,1,/,0.3,-3%,
CC(=O)N1N=C(c2ccncc2)OC12CCCC2,4,4,5,-1.0,3%,
COC(=O)CSc1nnc(-c2ccc3c(c2)OCO3)n1C,3,0,-120,-5.4,-8%,
CC1CCN(C(=O)c2ccc3c(Cl)c4c(nc3c2)CCCC4)CC1,-21,-3,/,8.3,0%,
CCC(Oc1ccccc1)C(=O)Nc1cc(Cl)ccc1-n1cncn1 (centres undefined),/,-9,/,2.5,/,
O=C(NC1CC1)C1=C[C@H](c2csc3ccccc23)C[C@H](OCc2ccc(CO)cc2)O1,/,15,/,-0.9,6%,
